# UUG fidelity: yeast start codon fidelity modulation; S. cerevisiae UUG-firefly luciferase reporter, luminescence/redox ratio; activity score, % at 18.7 µM; hit rate 0.13% among 350,000; AID 602363;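 active = replicate mean at a twofold rise or more, about +100% in these data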;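 note: firefly luciferase made from a UUG start codon reports start codon fidelity; reporter light over untreated wells divided by growth signal over untreated wells; some hits fall short of that in this replicate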
# HIV Env fusion: blocks HIV Env-driven cell-cell fusion | HeLa-JRFL Env/CEM21 cell fusion, luciferase | AID 651610 | inhibition, % at 12.3 µM | hit rate 1.1% among 360,000;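 active = mean replicate inhibition score of at least 50 and every replicate individually at or above 50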;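 note: 0% = plate neutral controls and 100% = maraviroc near 300 nM; one replicate is shown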
# Active calls of the source: *; [ ] = dose if it differs, or a comment. An excerpt; rates above refer to the full screens.
Structure | UUG fidelity | HIV Env fusion
C[C@H](CO)N1C[C@H](C)[C@@H](CN(C)C(=O)Nc2ccc(F)cc2)OCCCC[C@H](C)Oc2ccc(NC(=O)CCC(F)(F)F)cc2C1=O | -3.5 | -44.1[16.7 µM]
Cc1ccc(S(=O)(=O)NCC[C@H]2CC[C@@H](NC(=O)NC(C)C)[C@@H](CO)O2)cc1 | 4.5 | -17.7[16.7 µM]
C[C@H](CO)N1C[C@H](C)[C@@H](CN(C)C(=O)C2CCC2)Oc2cc(C#C[C@@H](C)O)ccc2S1(=O)=O | 3.9 | -4.6[16.7 µM]
CC(C)NC(=O)Nc1ccc2c(c1)C(=O)N(C)[C@H]1CC[C@@H](CC(=O)NCC3CCCCC3)O[C@H]1CO2 | 26.7 | 5.5[16.7 µM]
CC(C)NC(=O)Nc1cccc2c1O[C@@H](CN(C)C(=O)Nc1cccc3ccccc13)[C@@H](C)CN([C@@H](C)CO)C2=O | -5.4 | -7.9[16.7 µM]
Cc1noc(C)c1NC(=O)N(C)C[C@H]1Oc2cc(C#CCN(C)C)ccc2S(=O)(=O)N([C@H](C)CO)C[C@H]1C | 10.1 | 9.8[16.7 µM]
COc1ccccc1-c1ccc2c(c1)O[C@H](CN(C)C(=O)c1ccccc1)[C@@H](C)CN([C@H](C)CO)S2(=O)=O | 20.0 | -25.8[16.7 µM]
CCCC#Cc1cnc2c(c1)C(=O)N([C@@H](C)CO)C[C@H](C)[C@H](CN(C)Cc1ccc(C(=O)O)cc1)O2 | 2.3 | -4.0[16.7 µM]
OC(CSc1ccccn1)CC(O)c1ccccc1 (configuration not stated) | -3.1 | -18.8[16.7 µM]
O=C(C[C@@H]1C[C@H]2c3cc(NC(=O)C4CCC4)ccc3O[C@H]2[C@@H](CO)O1)NCc1ccc(Cl)cc1 | 7.0 | 32.0[16.7 µM]
CC(C)C#Cc1cnc2c(c1)C(=O)N([C@H](C)CO)C[C@@H](C)[C@H](CN(C)C(=O)c1ccccn1)O2 | 1.6 | 3.6[16.7 µM]
COc1ccccc1NC(=O)N[C@H]1C=C[C@H](CC(=O)N[C@H](C)c2ccccc2)O[C@@H]1CO | -8.3 | 14.2[16.7 µM]
COCC(=O)Nc1ccc2c(c1)C(=O)N(C)C[C@H](OC)[C@H](C)CN(C(=O)CC1CC1)[C@H](C)CO2 | -5.2 | 7.0[16.7 µM]
C[C@H]1CN([C@@H](C)CO)C(=O)c2cc(NS(C)(=O)=O)ccc2O[C@H]1CN(C)CC1CCCCC1 | 6.4 | 4.2[16.7 µM]
C[C@H](CO)N1C[C@H](C)[C@H](CN(C)Cc2ccc3c(c2)OCO3)OCCCC[C@H](C)Oc2ccc(NS(=O)(=O)c3ccc(F)cc3)cc2C1=O | 14.9 | -28.8[16.7 µM]
CCCNC(=O)N(C)C[C@H]1Oc2ncc(-c3ccc(F)cc3)cc2C(=O)N([C@H](C)CO)C[C@H]1C | -5.2 | -1.0[16.7 µM]
COc1ccc(CN(C)C[C@H]2Oc3ccc(NC(=O)Nc4ccc5c(c4)OCO5)cc3CC(=O)N([C@@H](C)CO)C[C@@H]2C)cc1 | -5.0 | -1.7[16.7 µM]
N#C[C@H]1[C@H](c2ccc(-c3cncnc3)cc2)[C@@H](CO)N1C(=O)CN1CCOCC1 | -5.9 | 12.8[16.7 µM]
CC(C)C(=O)Nc1ccc2c(c1)C(=O)N(C)[C@H]1CC[C@@H](CC(=O)NCc3ccccc3F)O[C@@H]1CO2 | 14.9 | 9.5[16.7 µM]
CC(C)NC(=O)N(C)C[C@@H]1Oc2ncc(-c3ccccc3F)cc2C(=O)N([C@H](C)CO)C[C@@H]1C | -1.0 | -11.0[16.7 µM]
Cc1ccccc1-c1cnc2c(c1)C(=O)N([C@H](C)CO)C[C@@H](C)[C@@H](CN(C)C(=O)c1ccc(F)cc1)O2 | 1.4 | -8.4[16.7 µM]
C[C@H](CO)N1C[C@H](C)[C@@H](CN(C)S(=O)(=O)c2ccccc2)Oc2ccc(N(C)C)cc2C1=O | 2.9 | 4.2[16.7 µM]
O=C(NCC[C@H]1CC[C@H](NS(=O)(=O)c2cccc(Cl)c2)[C@H](CO)O1)c1cnccn1 | -3.0 | 11.3[16.7 µM]
C[C@H]1CN([C@@H](C)CO)C(=O)Cc2cc(NC(=O)Nc3ccc(C(F)(F)F)cc3)ccc2O[C@H]1CN(C)Cc1ccc(-c2ccccc2)cc1 | 0.5 | 18.9[16.7 µM]
C[C@@H]1CN([C@@H](C)CO)S(=O)(=O)c2ccc(C#CC(C)(C)O)cc2O[C@@H]1CN(C)Cc1ccncc1 | -16.8 | 9.3[16.7 µM]
Cc1noc(C)c1NC(=O)Nc1ccc2c(c1)CC(=O)N([C@@H](C)CO)C[C@@H](C)[C@@H](CN(C)C(=O)Nc1ccc(C(F)(F)F)cc1)O2 | -4.2 | -2.0[16.7 µM]
C[C@H]1CN([C@@H](C)CO)C(=O)Cc2cc(NC(=O)CCCCCC(=O)Nc3ccccc3N)ccc2O[C@@H]1CN(C)CC1CC1 | -15.4 | -13.3[16.7 µM]
O=C(CCN1CCCCC1)N[C@@H]1C=C[C@H](CC(=O)N2CCC(Cc3ccccc3)CC2)O[C@@H]1CO | 1.8 | -13.0[16.7 µM]
Cc1ccc(-c2ccc3c(c2)O[C@H](CN(C)Cc2ccccn2)[C@H](C)CN([C@H](C)CO)S3(=O)=O)cc1 | -20.0 | -1.5[16.7 µM]
C[C@@H]1CN([C@H](C)CO)C(=O)c2cc(C#CC(C)(C)O)cnc2O[C@@H]1CN(C)C(=O)CN(C)C | 0.2 | -5.7[16.7 µM]
NC(=O)[C@H]1[C@@H]2C(=O)O[C@@H](c3ccccc3)[C@@H](c3ccccc3)N2[C@@H](c2ccc(OCCO)cc2)[C@]12C(=O)Nc1ccccc12 | 9.4 | -26.0[16.7 µM]
C[C@H](CO)N1C[C@H](C)[C@H](CN(C)C(=O)C2CC2)Oc2ncc(-c3cccc(C#N)c3)cc2C1=O | -11.1 | -20.7[16.7 µM]
CCNC(=O)Nc1ccc2c(c1)C(=O)N(C)[C@@H]1CC[C@@H](CC(=O)NCC3CCCCC3)O[C@@H]1CO2 | 5.0 | 56.6*[16.7 µM]
C[C@@H]1CN([C@H](C)CO)C(=O)c2cc(NC(=O)Nc3ccc4c(c3)OCO4)ccc2O[C@@H]1CN(C)C(=O)Nc1ccccc1 | 11.4 | 5.0[16.7 µM]
O=C(Nc1cccc(Cl)c1)N[C@H]1CC[C@H](CCNC(=O)C2CCC2)O[C@@H]1CO | -5.9 | -12.2[16.7 µM]
C[C@H](CO)N1C[C@H](C)[C@H](CN(C)Cc2ccc(C(=O)O)cc2)Oc2ccc(NS(=O)(=O)c3ccc(F)cc3)cc2C1=O | 2.3 | 14.9[16.7 µM]
C[C@H]1CCCCO[C@@H](CN(C)C(=O)c2ccccc2)[C@@H](C)CN([C@@H](C)CO)C(=O)c2cc(NS(=O)(=O)c3cccs3)ccc2O1 | 0.1 | -15.3[16.7 µM]
C[C@H](CO)N1C[C@H](C)[C@H](CN(C)C(=O)C2CCOCC2)Oc2ncc(-c3cccc(F)c3)cc2C1=O | -4.5 | -1.6[16.7 µM]
COc1ccc(NC(=O)N(C)C[C@H]2Oc3ncc(C#C[C@@H](C)O)cc3C(=O)N([C@H](C)CO)C[C@@H]2C)cc1 | -0.4 | -14.7[16.7 µM]
C[C@@H]1CN([C@H](C)CO)C(=O)c2cc(NS(=O)(=O)c3cn(C)cn3)ccc2O[C@@H](C)CCCCO[C@@H]1CN(C)S(=O)(=O)c1cccs1 | 2.6 | -25.3[16.7 µM]

# Six records picked at random from those above, as already listed:
Structure | UUG fidelity | HIV Env fusion
Cc1ccc(-c2ccc3c(c2)O[C@H](CN(C)Cc2ccccn2)[C@H](C)CN([C@H](C)CO)S3(=O)=O)cc1 | -20.0 | -1.5[16.7 µM]
COc1ccccc1-c1ccc2c(c1)O[C@H](CN(C)C(=O)c1ccccc1)[C@@H](C)CN([C@H](C)CO)S2(=O)=O | 20.0 | -25.8[16.7 µM]
C[C@H](CO)N1C[C@H](C)[C@@H](CN(C)S(=O)(=O)c2ccccc2)Oc2ccc(N(C)C)cc2C1=O | 2.9 | 4.2[16.7 µM]
CC(C)NC(=O)Nc1ccc2c(c1)C(=O)N(C)[C@H]1CC[C@@H](CC(=O)NCC3CCCCC3)O[C@H]1CO2 | 26.7 | 5.5[16.7 µM]
C[C@H](CO)N1C[C@H](C)[C@H](CN(C)C(=O)C2CC2)Oc2ncc(-c3cccc(C#N)c3)cc2C1=O | -11.1 | -20.7[16.7 µM]
O=C(C[C@@H]1C[C@H]2c3cc(NC(=O)C4CCC4)ccc3O[C@H]2[C@@H](CO)O1)NCc1ccc(Cl)cc1 | 7.0 | 32.0[16.7 µM]

# (next part)
Structure | UUG fidelity | HIV Env fusion
COc1ccc(NC(=O)Nc2ccc3c(c2)OC[C@H](C)NC[C@H](C)[C@H](OC)CN(C)C3=O)cc1 | 2.7 | -3.0[16.7 µM]
C[C@H](CO)N1C[C@H](C)[C@H](CN(C)Cc2ccncc2)OCCCC[C@H](C)Oc2ccc(NC(=O)Nc3cccc4ccccc34)cc2C1=O | 9.1 | 31.7[16.7 µM]
CCCNC(=O)N(C)C[C@H]1Oc2ncc(-c3cccc(C#N)c3)cc2C(=O)N([C@H](C)CO)C[C@H]1C | 3.8 | 8.9[16.7 µM]
COc1ccc(CN(C)C[C@@H]2Oc3ccc(NC(=O)Nc4cccc5ccccc45)cc3C(=O)N([C@H](C)CO)C[C@@H]2C)cc1 | -0.8 | -3.9[16.7 µM]
N#C[C@H]1[C@@H](c2ccc(C#CCC3CCCC3)cc2)[C@H](CO)N1C(=O)CN1CCOCC1 | -1.6 | -6.9[16.7 µM]
COc1ccc(S(=O)(=O)N(C)C[C@H]2Oc3c(NC(=O)C4CCOCC4)cccc3C(=O)N([C@@H](C)CO)C[C@@H]2C)cc1 | -9.4 | -1.0[16.7 µM]
Cc1ccc(S(=O)(=O)N(C)C[C@H]2Oc3c(NC(=O)Nc4ccc(C(F)(F)F)cc4)cccc3C(=O)N([C@H](C)CO)C[C@@H]2C)cc1 | 2.1 | -31.2[16.7 µM]
C[C@H]1CN([C@@H](C)CO)C(=O)c2cccc(N(C)C)c2O[C@@H]1CN(C)C(=O)Nc1ccc2c(c1)OCO2 | -1.5 | -3.4[16.7 µM]
CC(C)NC(=O)N(C)C[C@H]1OCCCC[C@H](C)Oc2ccc(NS(=O)(=O)c3ccccc3)cc2C(=O)N([C@@H](C)CO)C[C@@H]1C | 5.0 | 6.0[16.7 µM]
COc1ccc(NC(=O)N(C)C[C@H]2OCCCC[C@@H](C)Oc3ccc(NC(=O)Cc4ccccc4)cc3C(=O)N([C@H](C)CO)C[C@@H]2C)cc1 | -3.0 | -88.3[16.7 µM]
C[C@H](NC(=O)C[C@@H]1CC[C@H](NC(=O)C2CC2)[C@@H](CO)O1)c1ccccc1 | -9.1 | -9.0[16.7 µM]
C[C@H](CO)N1C[C@H](C)[C@@H](CN(C)C(=O)Nc2ccc3c(c2)OCO3)Oc2ccc(NC(=O)CCN3CCOCC3)cc2CC1=O | 3.6 | 6.8[16.7 µM]
Cc1noc(C)c1S(=O)(=O)Nc1ccc2c(c1)C(=O)N([C@H](C)CO)C[C@@H](C)[C@H](CN(C)C(=O)CCCN(C)C)OCCCC[C@@H](C)O2 | 0.7 | 13.6[16.7 µM]
Cc1ccc(S(=O)(=O)N(C)C[C@@H]2OCCCC[C@@H](C)Oc3ccc(NS(=O)(=O)c4ccc(Cl)cc4)cc3C(=O)N([C@@H](C)CO)C[C@H]2C)cc1 | 9.1 | 7.2[16.7 µM]
CC(C)NC(=O)N(C)C[C@H]1Oc2ccc(NC(=O)NC3CCCCC3)cc2CC(=O)N([C@@H](C)CO)C[C@H]1C | -4.6 | -7.4[16.7 µM]
Cc1ccc(S(=O)(=O)N(C)C[C@@H]2OCCCC[C@@H](C)Oc3ccc(NC(=O)Nc4ccc(C(F)(F)F)cc4)cc3C(=O)N([C@@H](C)CO)C[C@H]2C)cc1 | -14.5 | 38.4[16.7 µM]
C[C@H](CO)N1C[C@H](C)[C@H](CN(C)C(=O)NC2CCCCC2)Oc2ccc(NS(=O)(=O)c3cn(C)cn3)cc2CC1=O | -7.9 | 1.1[16.7 µM]
Cc1noc(C)c1NC(=O)N(C)C[C@@H]1Oc2ccc(NC(=O)Nc3cccc4ccccc34)cc2C(=O)N([C@H](C)CO)C[C@@H]1C | 0.1 | 0.5[16.7 µM]
C[C@H]1CCCCO[C@H](CN(C)Cc2ccc(C(F)(F)F)cc2)[C@@H](C)CN([C@@H](C)CO)C(=O)c2cc(NC(=O)CCCN(C)C)ccc2O1 | 3.4 | 0.1[16.7 µM]
CC(C)NC(=O)NCC[C@@H]1CC[C@H](NC(=O)CN(C)C)[C@H](CO)O1 | -8.8 | 3.7[16.7 µM]
CNC[C@@H]1OCCCC[C@@H](C)Oc2ccc(NS(=O)(=O)c3cn(C)cn3)cc2C(=O)N([C@@H](C)CO)C[C@@H]1C | 2.3 | -0.3[16.7 µM]
C[C@H](CO)N1C[C@H](C)[C@H](CN(C)Cc2ccc(Oc3ccccc3)cc2)Oc2c(NC(=O)c3cnccn3)cccc2C1=O | 0.5 | -5.9[16.7 µM]
COc1ccc(S(=O)(=O)N(C)C[C@@H]2OCCCC[C@H](C)Oc3ccc(NS(=O)(=O)c4ccc(F)cc4)cc3C(=O)N([C@@H](C)CO)C[C@@H]2C)cc1 | 3.6 | 18.4[16.7 µM]
C[C@H]1CN([C@@H](C)CO)C(=O)c2cccc(NC(=O)Nc3ccc(C(F)(F)F)cc3)c2O[C@@H]1CN(C)C(=O)Nc1ccc(C(F)(F)F)cc1 | -12.8 | -10.7[16.7 µM]
C[C@H](CO)N1C[C@H](C)[C@@H](CN(C)S(=O)(=O)c2cccs2)OCCCC[C@H](C)Oc2ccc(NC(=O)CCCN(C)C)cc2C1=O | 3.4 | -90.2[16.7 µM]
